High-throughput results: PubChem BioAssay, several laboratories
Beta2AR agonist = human beta-2 adrenergic receptor agonism by FAP | P07550 | Am2.2-beta2AR cells, FAP receptor internalization, flow cytometry; reference of the scale not given here | response, % (test concentration not listed) | hit rate 0.43% among 340,000 | AID 504454;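 active means response above a set limit, near 3 SD of response in nonfluorescent compounds, cut at about 42% in these data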;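 further: stock transfer was 100 nL into about 11 µL; a reference agonist was the positive control; negative values mostly stem from fluorescent compounds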
Target sequence (P07550 whole entry, looked up): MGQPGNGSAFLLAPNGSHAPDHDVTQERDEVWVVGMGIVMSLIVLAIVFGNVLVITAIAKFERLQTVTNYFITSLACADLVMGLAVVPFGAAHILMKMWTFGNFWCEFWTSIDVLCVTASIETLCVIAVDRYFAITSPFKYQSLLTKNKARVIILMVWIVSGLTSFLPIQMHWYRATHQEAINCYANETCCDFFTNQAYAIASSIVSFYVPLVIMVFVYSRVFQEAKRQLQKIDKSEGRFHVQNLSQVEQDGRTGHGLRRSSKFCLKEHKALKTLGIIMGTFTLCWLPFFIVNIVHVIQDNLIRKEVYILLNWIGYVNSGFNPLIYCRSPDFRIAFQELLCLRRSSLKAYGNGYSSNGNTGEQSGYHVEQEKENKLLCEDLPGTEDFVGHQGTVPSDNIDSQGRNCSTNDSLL
HNF4A DNA FP = change in binding of human HNF4 alpha to DNA; AID 1224865; HNF4a-FITC DNA binding, fluorescence polarization, 1 h; P41235; activity change, % at 10 µM; hit rate 0.3% among 360,000; in the data active means activity change above about 30%, passing the limit was not always enough;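 further: controls were the assay level and a saturating level of protein; the project sought stronger binding though the title names inhibitors; some compounds called inactive have numbers as strong as hits; positive values seem to mean higher polarization but the record does not say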
RanGTP-Impb inh = disruptors of Ran-importin-beta complex formation – biochemical, FRET, CFP-Ran, YFP-importin-beta, homogeneous, primary screen; cell-free CFP-Ran/YFP-importin-beta FRET ratio; inhibition, % (no concentration beside the values); hit rate 1.1% among 300,000; AID 2216;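 active means most replicates above 15%; inconclusive means exactly half above 15%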;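 further: 0% = DMSO wells and 100% = Ran loaded with GDP instead of GTP; wells of about 40 µL received 100 nL stock; the first replicate is given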
Vif TR-FRET = HIV-1 Vif–A3G interaction blockers – biochemical, TR-FRET, GST-Vif 1-94, biotin-A3G peptide, dose response retest, primary screen (AID 1117319); hit rate 0.57% among 260,000; TR-FRET GST-Vif / biotin-A3G peptide binding; higher % means a stronger effect; test concentration not given here; strong numbers were not always called active; inhibition, %; hits with a dose series show IC50 in µM;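 active means above the screen mean plus three standard deviations and confirmed in dose response; inconclusive means results disagree or hit not tested in dose response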;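 further: Vif residues 1-94 fused to GST binding biotinylated APOBEC3G peptide 110-148; 0% = full assay without inhibitor and 100% = GST in place of GST-Vif; retest series ran down from 100 µM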
ALR inh = inhibitors of human sulfhydryl oxidase ALR. P55789. purified ALR, DTT oxidation, H2O2 HRP-luminol luminescence. inhibition, % (test concentration not listed). hit rate 3.8% among 290,000;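 active means mean and each replicate at 75% or more; inconclusive means only one of the two met; inactive means neither met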;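 further: stock transfer was 7.5 nL into about 7.5 µL; 0% = neutral wells and 100% = wells with inactivated enzyme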
Calb FLC = C. albicans growth modulation with fluconazole | AID 1979 | hit rate 0.57% among 300,000 | growth inhibition, % (no concentration beside the values) | C. albicans CaCi-2 (fluconazole-resistant clinical isolate) + fluconazole, Alamar Blue growth, 48 h;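 active means most replicates above 75%; inconclusive means exactly half above 75%; inactive means most below 75%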;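 further: all wells also contain fluconazole at 8 µg/ml as a sub-toxic cotreatment; 0% = median of DMSO wells and 100% = median of geldanamycin control wells; wells of about 8 µL received 7.5 nL stock; the first replicate is given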
LANA-H2A inh = blocks KSHV LANA binding to histone H2A/H2B; inhibition, % (no concentration beside the values); AID 2629; hit rate 0.6% among 320,000; cell-free LANA-H2A/H2B peptide, fluorescence polarization; in the data active means inhibition mostly above about 10%, no sharp cut-off; inactive means mostly below about 6.7%;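 further: stock transfer was 7.5 nL into about 10 µL; 0% = median of vehicle wells and 100% = median of positive control wells; one replicate is shown; the record names a cut of 25% in any replicate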
* hit, by the source's call; ? = inconclusive; . = no result given.

SMILES | Beta2AR agonist | HNF4A DNA FP | RanGTP-Impb inh | Vif TR-FRET | ALR inh | Calb FLC | LANA-H2A inh
CC(C)c1ccc(C2CC(=O)c3cnc(NC(=O)c4ccco4)nc3C2)cc1 (configuration not stated) | -18 | 12 | 6.3 | . | 2 | -1 | 2.3
C/C(=N\OCC(=O)N/N=C/c1ccc(C)cc1O)c1cccs1 | 1 | 0.7 | -7.2 | 0% | 9 | -9 | 1.1
N#CCCN(C(=O)c1ccco1)c1ccccc1 | -1 | -1.7 | 2.5 | 20% | -6 | -2 | -1.3
COC(=O)c1ccc(/C=N/NC(=O)C(=O)NCc2ccccc2)cc1 | 6 | -2.5 | 6.1 | -10% | -9 | -13 | -6.6
O=C(NC(=S)Nc1nc(-c2ccc(Br)cc2)cs1)c1cccnc1 | -2 | 6.0 | 3.4 | -4% | -4 | ? | -1.3
Cc1ccccc1C(=O)c1cccn1CC(=O)N1CCCCC1 | -6 | 3.9 | 5.2 | 5% | 1 | 10 | 3.7
Cc1nn(CC(=O)NCC2CCCO2)c(=O)c2cc3ccccc3n12 (configuration not stated) | -8 | 0.8 | 2.7 | 2% | -2 | -1 | -1.6
CCOc1ccc(C(=O)Nc2nnc(SCC(=O)NCC3CCCO3)s2)cc1OCC (configuration not stated) | -9 | 5.1 | 1.5 | . | -25 | -4 | 1.6
CCOc1cc(C(=O)Nc2cccc(C(C)=O)c2)ccc1OCC(=O)N1CCCCC1 | -4 | -1.4 | -0.5 | -1% | -9 | -10 | -0.1
Nc1c(C(=O)NCc2ccccc2)nnn1Cc1ccc(F)cc1 | 0 | 2.8 | ? | 24% | . | -4 | 0.9

Part of the list above, with tabs.
Structure	Beta2AR agonist	HNF4A DNA FP	RanGTP-Impb inh	Vif TR-FRET	ALR inh	Calb FLC	LANA-H2A inh
Cc1ccccc1C(=O)c1cccn1CC(=O)N1CCCCC1	-6	3.9	5.2	5%	1	10	3.7
Cc1nn(CC(=O)NCC2CCCO2)c(=O)c2cc3ccccc3n12 (configuration not stated)	-8	0.8	2.7	2%	-2	-1	-1.6
CCOc1ccc(C(=O)Nc2nnc(SCC(=O)NCC3CCCO3)s2)cc1OCC (configuration not stated)	-9	5.1	1.5	.	-25	-4	1.6

Single records, from the list above:
Profile of `CCOc1cc(C(=O)Nc2cccc(C(C)=O)c2)ccc1OCC(=O)N1CCCCC1` = Beta2AR agonist: -4; HNF4A DNA FP: -1.4; RanGTP-Impb inh: -0.5; Vif TR-FRET: -1%; ALR inh: -9; Calb FLC: -10; LANA-H2A inh: -0.1
Profile of `CC(C)c1ccc(C2CC(=O)c3cnc(NC(=O)c4ccco4)nc3C2)cc1` (configuration not stated) = Beta2AR agonist: -18; HNF4A DNA FP: 12; RanGTP-Impb inh: 6.3; Vif TR-FRET: .; ALR inh: 2; Calb FLC: -1; LANA-H2A inh: 2.3

(more compounds)
SMILES | Beta2AR agonist | HNF4A DNA FP | RanGTP-Impb inh | Vif TR-FRET | ALR inh | Calb FLC | LANA-H2A inh
COC(CNC(=O)c1ccc(CS(=O)(=O)c2ccc(Br)cc2)o1)OC | 2 | 0.8 | -6.4 | 1% | . | -2 | 3.0
Clc1ccc2nc(N3CCNCC3)nc(-c3ccccc3)c2c1 | 16 | 2.0 | 3.9 | 2% | -11 | -21 | 0.4
c1ccc(Sc2ccccc2CN2CCCC2)cc1 | 13 | -0.4 | -0.2 | . | 1 | -12 | -11
Cc1cccc(S(=O)(=O)Nc2nc3ccccc3nc2OC(C)C)c1 | -8 | 2.4 | -2.6 | -19% | . | 25 | 1.1
O=C(COC(=O)COc1ccccc1)NC12CC3CC(CC(C3)C1)C2 | 0 | 3.4 | . | -8% | -1 | . | -2.9
Cc1cc(C)c(S(=O)(=O)N(C)Cc2cnn(C)c2)c(C)c1 | 1 | 0.4 | 1.1 | -4% | 1 | 4 | -2.9
